Screens as filed in PubChem.
RE007 growth inh – less growth of the S. pombe RE007 Vpr strain. Potency, µM (highest dose often 92.2 µM), for inactives: top-dose activity change, negative = less growth. 360,000 tested, 0.21% active. S. pombe RE007 Vpr strain, BacTiter-Glo ATP luminescence, 24 h; control for the full effect not named in the record. AID 651644; active = well fitted falling curve with a large enough effect; inconclusive = small, poorly fitted or top-dose-only effect; inactive = no such curve, though single readings can be large or run the other way;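 further: on the % scale 0 is the no-effect control and ±100 the full control effect; nearly all actives have a fitted effect of over 50% in size; the assay follows cell death caused by Vpr and the record does not say whether a fall means rescue or toxicity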
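Fission yeast RE007 carrying one integrated HIV-1 vpr copy, seeded at OD 0.01 in PMG+AL medium with 23 nL pinned compound. Grown 24 h at 30 degrees; viability read by BacTiter-Glo luminescence after 5 min.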
Lassa entry inh – inhibitors of Lassa virus binding or cell entry | 300,000 tested, 1.2% active | Lassa virus pseudotype entry inhibition, cell reporter; control for the full effect not named in the record | Potency, µM (top dose mostly 37.9 µM), for inactives: at the highest dose activity change, negative = inhibition, most hits filed as inhibitors; active means well fitted inhibition curve with a large enough effect; inconclusive means small, poorly fitted or top-dose-only effect, or effect the other way; inactive means flat fitted curve, though single readings scatter; tested in HEK293 cells; further: on the % scale 0 is the no-effect control and ±100 the full control effect; nearly all actives have a fitted effect of over 50% in size; luciferase read-out
Cruzain Triton – inhibitors of Trypanosoma cruzi cruzain with detergent | purified cruzain, Z-FR-AMC fluorescence, 0.01% Triton | Potency, µM, inactives show max response, negative = inhibition, actives largely listed as inhibitors | P25779 | AID 1478 | 200,000 tested, 0.43% active; active means well fitted curve in the direction sought with a large enough effect; inconclusive means small, poorly fitted or top-dose-only effect, or another doubt; inactive means no such curve, though single readings can be large; an effect the other way counts as inactive or inconclusive;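 further: plate controls were neutral wells for no effect and buffer without enzyme for full effect; nearly all actives have a fitted effect of over 40% in size; top concentration of the series not given in the record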
Target sequence (P25779 123-467 limits assumed): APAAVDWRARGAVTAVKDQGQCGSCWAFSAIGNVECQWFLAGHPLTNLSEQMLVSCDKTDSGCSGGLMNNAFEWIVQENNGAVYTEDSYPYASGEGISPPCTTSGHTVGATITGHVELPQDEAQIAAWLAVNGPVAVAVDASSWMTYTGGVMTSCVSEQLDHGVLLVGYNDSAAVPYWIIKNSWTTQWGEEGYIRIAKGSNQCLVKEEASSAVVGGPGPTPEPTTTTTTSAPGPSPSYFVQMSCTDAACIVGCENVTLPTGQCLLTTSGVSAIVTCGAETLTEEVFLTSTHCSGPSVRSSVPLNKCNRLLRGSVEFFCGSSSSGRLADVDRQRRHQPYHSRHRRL
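Steps: dispense cruzain (1.5 nM final) in acetate buffer pH 5.5 with DTT and 0.01% Triton X-100; pin-transfer compounds; incubate 15 min RT; add Z-FR-AMC (2 uM final); read fluorescence every 30 s, using the 60 s intensity change.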
SARS PLpro yeast – inhibitors of SARS-CoV papain-like protease in yeast; AID 485353; S. cerevisiae expressing SARS-CoV PLpro, growth rescue; control for the full effect not named in the record; Potency, µM (top dose mostly 32.9 µM), inactives show at the top dose activity, positive = growth rescue; 330,000 tested, 0.19% active; further: 0% is about no effect; nearly all actives have a fitted effect of over 55% in size; growth read by luminescence after 48 h
NS1 function inh – blocks influenza NS1 protein function. Potency, µM (top dose mostly 46.1 µM), without a hit: top-dose activity, positive = more growth. AID 2326. S. cerevisiae slowed by influenza A NS1, growth recovery by OD600. 270,000 tested, 0.4% active; further: actives are rising curves; nearly all actives have a fitted effect of over 50% in size
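In this qHTS, NS1 from influenza A is expressed in budding yeast, where it slows growth. Cells are switched from glucose to 2% galactose medium (pH 6.0, -URA), treated with compound, and growth recovery is read at OD600.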
Marburg entry inh – Marburg virus entry inhibition. 300,000 tested, 1.8% active. AID 540276. Potency, µM (highest dose often 37.8 µM), without a hit: at the top dose activity change, negative = inhibition, usual class: inhibitors. Marburg virus pseudotyped entry inhibition, cell reporter; control for the full effect not named in the record; about a third of the inactives were read at about 46 µM; active = well fitted inhibition curve with a large enough effect; inconclusive = small, poorly fitted or top-dose-only effect, or effect the other way; inactive = flat fitted curve, though single readings scatter; tested in HEK293 cells; about a fifth of its hits are not listed in these tables; further: on the % scale 0 is the no-effect control and ±100 the full control effect; luciferase read-out
Cruzain inh noDet – blocks cruzain activity in detergent-free assay | purified cruzain, Z-FR-AMC fluorescence, no detergent | 200,000 tested, 2.3% active | P25779 | Potency, µM, for inactives: max response, negative = inhibition, hits mostly inhibitors | AID 1476; active means well fitted curve in the direction sought with a large enough effect; inconclusive means small, poorly fitted or top-dose-only effect, or another doubt; inactive means no such curve, though single readings can be large; an effect the other way counts as inactive or inconclusive;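 further: plate controls were enzyme without inhibitor for no effect and buffer without enzyme for full effect; nearly all actives have a fitted effect of over 40% in size; top concentration of the series not given in the record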
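Detergent-free condition (0.00005% Triton X-100) in acetate buffer pH 5.5 with DTT. 1.5 nM enzyme and compound were pre-mixed 15 min, then 2 uM Z-FR-AMC substrate added; reaction progress from fluorescence change between first and third reads (60 s).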
2A StopGo – FMDV 2A StopGo reporter, luciferase signal; AID 1159524; 410,000 tested, 1.2% active; human cells with a luciferase reporter of 2A StopGo recoding; control for the full effect not named in the record; Potency, µM (titrated, usually from 57.9 µM), for inactives: at the top dose signal change, negative = less light; active = well fitted falling curve with a large enough effect; inconclusive = small, poorly fitted or top-dose-only effect; inactive = no such curve, though single readings can be large or run the other way; tested in HEK293T cells; further: on the % scale 0 is the no-effect control and ±100 the full control effect; nearly all actives have a fitted effect of over 45% in size; luciferase light after 4 h
The depositor's hits bear a star; ? = inconclusive; . = not tested or not shown; & = joins results of further samples; [ ] = remark or other dose. Unless noted, the call rests on the fitted dose curve; in most records, active means well fitted rising curve with a large enough effect; inconclusive means small, poorly fitted or top-dose-only effect; inactive means no such curve, though single readings can be large or run the other way. Potency means the concentration at half of the fitted maximal effect. Compounds as they come; any-hit rate near 4.6%.

SMILES | RE007 growth inh | Lassa entry inh | Cruzain Triton | SARS PLpro yeast | NS1 function inh | Marburg entry inh | Cruzain inh noDet | 2A StopGo
CCOc1ccc2oc(C(=O)NNC(=O)c3csc(N4CCOCC4)n3)c(C)c2c1 | -3% | 0% | . | -8% | 15% | -2%[46.1 µM] | . | -9%
Cc1cnc(C(=O)OC(C)C(=O)Nc2ccccc2-c2ccccc2)cn1 (stereo not drawn) | 6% | 2%[46.1 µM] | . | ? | . | 4% | . | -23%
CN(C)S(=O)(=O)c1ccc(S(=O)(=O)NCCN2CCOCC2)cc1 | 7% | . | . | -9% | 26% | . | . | -11%
CCOc1ccc(Nc2nc3ccccc3n3nnnc23)cc1 | 3% | . | -3.2% | -4% | -1% | . | -1% | 7%
COc1cccc(-c2nc(CS(=O)CC(=O)NC3CC3)c(C)o2)c1 (stereo not drawn) | -2% | . | 3.1% | -1% | ? | . | 3% | 4%
O=C(NCCc1ccccc1)c1cc(S(=O)(=O)N2CCOCC2)ccc1F | -7% | 1% | 2.2% | 0% | 15% | 1% | 14% | 0%
Cc1cc(C)cc(C(=O)n2cnnc2N)c1 | -4% | ? | 7.3% | -4% | -7% | 7% | -5% | 6%
COc1ccc(NC(=O)CCCn2nc(C)c3sc4ccccc4c3c2=O)cc1 | . | 25%[46.1 µM] | -1.0% | . | . | 5%[46.1 µM] | -12% | -19%
O=C(CNC(=O)c1ccc(Br)o1)NCc1ccccc1Cl | 3% | -2% | . | 2% | 10% | 13% | . | 54%[activator]
COc1ccccc1NC(=O)CSc1nnc(-c2ccoc2C)n1CC1CCCO1 (stereo not drawn) | -10% | 1% | 0.2% | -3% | -12% | -17% | 7% | 3%
COc1ccc(-c2cc(=O)c3cc(C)ccc3[nH]2)cc1 | -18% | 18% | 1.1%&1.6% | -35% | -2% | 7% | -5%&-6% | 28%
CCOCCCn1c(=N)c(C(=O)NC2CCCCC2)cc2c(=O)n3ccccc3nc21 | . | 15%[46.1 µM] | -11% | . | . | 5%[46.1 µM] | 0% | -13%
CCOc1ccc(C/C(O)=C2\C(=O)CC(C)(C)CC2=NCC(=O)O)cc1OCC | 3% | -15% | . | -1% | . | 12%[46.1 µM] | . | -11%
Cc1ccc(NC(=O)NNC(=O)c2cc3ccccc3cc2O)cc1C | -1% | . | . | 8% | 10% | . | . | -19%
O=C(CNCc1ccccc1Cl)Nc1ccc(C(=O)N2CCCCC2)cc1 | -2% | 4% | . | 9% | -1% | -14%[46.1 µM] | . | -13%
COC(=O)C1=C(CSCc2ccco2)NC(=O)NC1c1cc(C)ccc1C (stereo not drawn) | -4% | -22% | -3.4% | 0% | -30% | ? | -24% | -23%
O=C1NC2CCc3nc4ccccc4c(=O)n3C2=Nc2ccccc21 (stereo not drawn) | 1% | . | . | 1% | 2% | . | . | -13%
COC(=O)c1ccccc1NC(=O)C1(c2cccs2)CCOCC1 | . | 12%[46.1 µM] | -4.6% | . | . | . | -5% | -23%
Cc1cc(SCC(=O)N/N=C/c2ccco2)nc2ccccc12 | -5% | 14%[46.1 µM] | . | -1% | -4% | ? | . | -12%
Cc1ccc(C2CC(c3ccco3)n3ncnc3N2)cc1 (stereo not drawn) | -21% | . | 3.4% | 1% | -1% | . | 15% | -15%
CCC(=O)Nc1nc2ccccc2n1Cc1ccccc1C | ? | ? | -2.5% | ? | -33% | ? | -5% | ?
CCN(CCO)c1ccc(-n2c(N)c(C(=O)OC)c3nc4ccccc4nc32)cc1 | 1% | -27% | -4.2% | -5% | -17% | -28% | 21% | ?
O=C(COC(=O)Cc1ccc(Cl)c(Cl)c1)NCc1ccco1 | -10% | -7% | . | -3% | . | -7%[46.1 µM] | . | -15%
CS/C(=N\S(=O)(=O)c1cccs1)Nc1ccc(Br)cc1F | 5%&-7% | ? | -5.2% | -45% | -33% | ? | 7% | -3%&-29%
C=C1c2cccc(OC)c2O[C@H](C(=O)OCC)[C@@H]1CC(CC)CCCC (stereo partly drawn) | 7% | . | -0.2% | -19% | . | . | ? | ?
SMILES | RE007 growth inh | Lassa entry inh | Cruzain Triton | SARS PLpro yeast | NS1 function inh | Marburg entry inh | Cruzain inh noDet | 2A StopGo
CCn1ccc(C(=O)Nc2ccccc2SC)n1 | -3% | ? | . | 1% | . | ? | . | 36%[activator]
Oc1ccccc1/C=N/c1c(-c2ccco2)nc2ccccn12 | -19% | ? | ? | -2% | -42% | 20% | -20% | 1%
Fc1cccc(C[n+]2csc3ccccc32)c1 | 22% | 2% | -4.8% | -29% | -11% | -17% | -12% | -10%
CC(=O)Nc1ccc2c(c1)Cc1c(F)cccc1-2 | -8% | ? | . | . | . | 8% | . | 98%[activator]
Cc1ccc(N(CC(=O)NC(C)(C)C)C(=O)CCC(=O)Nc2nccs2)c(C)c1 | -11% | . | . | 1% | 18% | . | . | 1%
O=C(c1cnn2c(C(F)(F)F)cc(-c3ccc4c(c3)OCO4)nc12)N1CCCC1 | -4% | 0% | -1.1% | -2% | -6% | ? | 2% | -23%
COc1ccc(-c2n[nH]c(=S)n2-c2ccc(C)cc2)cc1 | 19% | . | . | -1% | 4% | . | . | -13%
Cc1noc(/C=C/N(C)C)c1S(=O)(=O)NC1CCCCC1 | -1% | -17% | -0.1% | 5% | ? | 8% | -1% | 13%
Clc1cccc(-c2sc(Nc3ccccc3)n[n+]2-c2ccccc2)c1Cl | 3% | . | . | -2% | 12% | . | . | 6%
O=C(CSc1nnnn1C1CCCCC1)Nc1ccccc1F | 3% | . | . | 0% | -4% | . | . | -1%
N#Cc1ccc(-c2csc(NC(=O)c3ccc(S(=O)(=O)N4CCc5ccccc5C4)cc3)n2)cc1 | -2% | 18% | -2.2% | 27% | 9% | ? | 6.3µM* | -17%
C/C=C/c1ccc(OCCCCN2CCC(C)CC2)c(OC)c1 | 11% | ? | . | -6% | . | ? | . | -10%
O=C(NC(=S)Nc1ccccc1O)c1ccc(-c2ccc(Cl)cc2)o1 | 25% | 3% | 5.3% | -6% | -47% | 11% | 16µM* | -18%
CCN1CCN(CC(=O)Nc2ccccc2)C(=O)C1=O | 4% | . | 7.3% | -6% | 3% | . | 0% | -10%
CCC(=O)Nc1cccc(-c2cc3ccccc3oc2=O)c1 | 5% | 13%[46.1 µM] | . | -1% | -34% | 2%[46.1 µM] | . | 17%
CSCC(=O)NCC1(N(C)Cc2ccccc2)Cc2ccccc2C1 | 7% | 10% | . | 3% | 16% | 3% | . | -17%
O=C(/C=C/c1ccccc1Cl)c1cccnc1 | ? | ? | -1.3% | -43% | -196% | ? | 7% | 14µM*
Cc1cc(=O)n2nc(N3CCCC3C(=O)NCCCN3CCCCC3)sc2n1 (stereo not drawn) | 7% | 26% | 4.0% | -4% | 3% | 10% | -7% | -24%
CCN1CCN(C(=O)c2cc3cc4cc(OC)ccc4nc3s2)CC1 | -28% | 9% | -4.0% | 3% | -7% | ? | -5% | 18%
Cc1cc(C)c(C(=O)N(C)C2CCCN(Cc3ccccc3F)C2)o1 (stereo not drawn) | 2% | . | . | 5% | 3% | . | . | -15%
CCN(C(=O)CSc1nc2ccc(OC)cc2[nH]1)C1CCS(=O)(=O)C1 (stereo not drawn) | -5% | -1% | . | -3% | . | -6% | . | -8%
COc1ccc(N2CC(C(=O)NCCC3=CCCCC3)CC2=O)cc1 (stereo not drawn) | 1% | ? | 0.9% | -15% | -3% | -4% | 9% | 17%
CCOc1ccc(NC(=O)CCNS(=O)(=O)c2ccc3c(c2)oc(=O)n3C)cc1 | -8% | -9%[46.1 µM] | 1.0% | 0% | -9% | 23%&23%[46.1 µM] | -8% | -4%&12%
CC(C)Cc1nnc(NC(=O)CSc2nc(=O)cc(N)n2-c2ccccc2)s1 | -10% | -10% | ? | -9% | 1% | 4%&4%[46.1 µM] | -23% | -13%
Cc1cc(C(=O)CSc2nnc(-c3ccccc3F)o2)c(C)n1Cc1cccs1 | -4% | -5% | -0.1% | ? | -3% | 2%&-7% | -13% | -29%
CCN(c1ccccc1)S(=O)(=O)c1ccc(OC)c(NC(=O)CCc2nc3ccccc3c(=O)[nH]2)c1 | 20% | -21% | . | 5% | . | ? | . | 0%
Cc1cc(C)c2oc(C(=O)Nc3nnc(C(C)C)s3)cc(=O)c2c1 | -8% | 1% | -7.6% | -8% | -22% | 8% | 22% | 0%

8 entries from above, arranged by length of the SMILES, high to low.
SMILES | RE007 growth inh | Lassa entry inh | Cruzain Triton | SARS PLpro yeast | NS1 function inh | Marburg entry inh | Cruzain inh noDet | 2A StopGo
CCN(c1ccccc1)S(=O)(=O)c1ccc(OC)c(NC(=O)CCc2nc3ccccc3c(=O)[nH]2)c1 | 20% | -21% | . | 5% | . | ? | . | 0%
CCN(C(=O)CSc1nc2ccc(OC)cc2[nH]1)C1CCS(=O)(=O)C1 (stereo not drawn) | -5% | -1% | . | -3% | . | -6% | . | -8%
Clc1cccc(-c2sc(Nc3ccccc3)n[n+]2-c2ccccc2)c1Cl | 3% | . | . | -2% | 12% | . | . | 6%
Cc1cc(C)c2oc(C(=O)Nc3nnc(C(C)C)s3)cc(=O)c2c1 | -8% | 1% | -7.6% | -8% | -22% | 8% | 22% | 0%
COc1ccc(N2CC(C(=O)NCCC3=CCCCC3)CC2=O)cc1 (stereo not drawn) | 1% | ? | 0.9% | -15% | -3% | -4% | 9% | 17%
CSCC(=O)NCC1(N(C)Cc2ccccc2)Cc2ccccc2C1 | 7% | 10% | . | 3% | 16% | 3% | . | -17%
Oc1ccccc1/C=N/c1c(-c2ccco2)nc2ccccn12 | -19% | ? | ? | -2% | -42% | 20% | -20% | 1%
CC(=O)Nc1ccc2c(c1)Cc1c(F)cccc1-2 | -8% | ? | . | . | . | 8% | . | 98%[activator]
